Compound activity from PubChem.
hNpr1 antagonist = antagonists of human natriuretic peptide receptor Npr1; P16066; HEK293 hNpr1 GloSensor cGMP, ANP-stimulated luminescence; Potency, µM (doses to about 46.3 µM), without a hit: at the highest dose activity change, negative = inhibition, usual class: inhibitors; hit rate 1.6% among 76,000; AID 1347048; active = well fitted inhibition curve with a large enough effect; inconclusive = small, poorly fitted or top-dose-only effect; inactive = no such curve, though single readings can be large or run the other way;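 note: nearly all actives have a fitted effect of over 60% in size; nearly all hits also lower the signal before the agonist is added; a reference antagonist and vehicle were the controls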
Target sequence (P16066 whole entry, looked up): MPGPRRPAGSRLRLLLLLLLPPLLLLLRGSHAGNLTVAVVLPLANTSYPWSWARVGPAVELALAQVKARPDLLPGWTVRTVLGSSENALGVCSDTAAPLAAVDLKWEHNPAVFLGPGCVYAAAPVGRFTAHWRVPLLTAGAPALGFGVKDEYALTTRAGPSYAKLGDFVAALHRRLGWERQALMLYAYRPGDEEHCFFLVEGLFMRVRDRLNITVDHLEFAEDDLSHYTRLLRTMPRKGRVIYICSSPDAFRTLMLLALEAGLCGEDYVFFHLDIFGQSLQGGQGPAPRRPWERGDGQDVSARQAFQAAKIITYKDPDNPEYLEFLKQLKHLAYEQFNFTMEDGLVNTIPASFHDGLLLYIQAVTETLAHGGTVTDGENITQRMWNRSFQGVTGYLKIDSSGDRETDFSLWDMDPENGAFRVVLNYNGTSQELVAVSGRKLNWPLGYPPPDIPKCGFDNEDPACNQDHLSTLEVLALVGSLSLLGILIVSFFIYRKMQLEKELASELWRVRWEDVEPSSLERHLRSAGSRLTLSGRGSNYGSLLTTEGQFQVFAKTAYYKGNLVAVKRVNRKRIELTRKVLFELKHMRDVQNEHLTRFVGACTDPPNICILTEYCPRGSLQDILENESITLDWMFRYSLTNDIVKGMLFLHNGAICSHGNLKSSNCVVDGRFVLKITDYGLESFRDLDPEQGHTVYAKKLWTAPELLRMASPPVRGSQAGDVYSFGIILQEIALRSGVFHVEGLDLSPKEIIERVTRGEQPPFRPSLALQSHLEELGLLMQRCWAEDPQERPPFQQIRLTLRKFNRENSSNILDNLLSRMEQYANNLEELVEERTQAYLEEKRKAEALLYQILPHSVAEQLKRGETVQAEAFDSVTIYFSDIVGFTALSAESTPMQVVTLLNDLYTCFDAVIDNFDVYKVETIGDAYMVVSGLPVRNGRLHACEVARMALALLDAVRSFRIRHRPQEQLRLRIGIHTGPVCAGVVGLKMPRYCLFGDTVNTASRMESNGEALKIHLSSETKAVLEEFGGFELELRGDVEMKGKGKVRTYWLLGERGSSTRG
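HEK293 cells stably expressing human Npr1 and cGMP GloSensor pGS-40F, loaded 2 h with 2% GloSensor reagent, given compound 30 min at room temperature. Luminescence read before and 20 min after 0.1 nM hNppA.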
Active calls of the source: *; ? = inconclusive; [ ] = remark or other dose. % is set by controls: 0 for no effect and ±100 for the full control effect; potency is the fitted concentration of half-maximal effect.

SMILES	hNpr1 antagonist
COc1ccc(CCC(=O)N2CCCC(c3nc(-c4cccnc4)no3)CCNC(=O)CC2)cc1 (stereo unspecified)	-2%
CC(C)Nc1cc(CC2CC(=O)N(c3ccccc3)C2)ncn1 (stereo unspecified)	8%
COc1cccc(CC(=O)N2CCN(C(=O)c3nnn4c3COC(c3ccc(F)cc3)C4)CC2)c1 (stereo unspecified)	-14%
Cc1cccc(CN2CCC(C(=O)N3CCCCCCNC(=O)CC3)CC2)c1	7%
Cc1cc(=O)n(CC(=O)Nc2ccc(Cl)cc2)c(N2CCc3ccccc3C2)n1	-16%
O=C(c1ccc(Oc2ccccc2)cc1)N1CCNc2cnc(Nc3cccc(C(F)(F)F)c3)nc2C1	?
COc1cccc(S(=O)(=O)N2C[C@@H](C)[C@](O)(C3CCC3)C2)c1	2%
Cc1cc(CN(C)C2CCc3nn(C)c(=O)n3CC2)n(C)n1 (stereo unspecified)	7%
Cc1nncn1C1CCN(S(=O)(=O)c2ccc(Cl)cc2)CC1	3%
Cc1ncccc1C(=O)N1CCC(C(=O)N2CCCCCCNC(=O)CC2)CC1	4%
CCCn1ncc(C(=O)N2CCOCC2CC(=O)N2CCSCC2)c1C (stereo unspecified)	1%
COc1ccc(CNC(=O)CC[C@@H]2CNC(=O)[C@@H]3C[C@H](NCc4ccc(F)cc4)CN23)cc1	-1%
COc1cccc(-c2cc(C3CCN(C(=O)Nc4ccc(Cl)cc4F)CC3)[nH]n2)c1	-3%
CC(=O)Nc1ccc([C@@H](O)[C@H]2COCC(=O)N2CC(C)C)cc1	4%[70.6 µM]
Cc1noc2c(NCCN(C)C)cc(-c3ccc(Cl)cc3)nc12	2%[70.6 µM]
CCN(CC)C(=O)[C@@H]1CCC[C@@H](NC(=O)c2cc(C)n(C)n2)CN(C)C(=O)C1	3%[70.6 µM]
Cc1noc(C)c1[S+](=O)([O-])N1CCCC2(C1)C(=NC1CCCCC1)NC(=O)N2c1cccnc1 (stereo unspecified)	22%
CN(C)c1ccc(CN2CCNc3cc(Nc4cccnc4)ncc3C2)cc1	-9%[70.6 µM]
CC1(Cc2ccc3c(c2)OCO3)CCCN(CC(=O)NCc2ccco2)C1 (stereo unspecified)	?
CC(C)n1cnnc1-c1nn(C)c2c1CN(C(=O)c1nn(C)c3ccccc13)CC2	6%
COc1ccc2ccc(OCc3nc(C(=O)NCc4cnc(C)cn4)co3)cc2c1	-22%
O=C(NCCc1ccncc1)C1CN(Cc2ccncc2)CC12CCOCC2 (stereo unspecified)	3%
CC(C)CC(=O)N1CCC2(CC1)CC(N(C(=O)c1ccccc1)C1CC1)CCO2 (stereo unspecified)	-13%
CC1(C)CNC(=O)c2nc(CCN3CCC(C(N)=O)CC3)[nH]c2C1	-1%
CN1C(=O)c2cccn2CC1CNC(=O)NCCc1ccccc1 (stereo unspecified)	-1%
Cc1ccc(CN2CCN(c3cc(NCCO)ncn3)CC2CCO)cc1 (stereo unspecified)	10%
COc1ccc(NC(=O)NCC2CCOCC2)c(C)c1	-2%
Cc1nc2c(c(-c3ccc(O)cc3)n1)CN(C(=O)C(C)(C)C)CCC2	2%[70.6 µM]
c1ccc(-c2cnc3n[nH]c(-c4ccccc4)c3n2)cc1	-12%[70.6 µM]
CCN(Cc1ccc(C)o1)C(=O)C(C)n1ccnc1C(C)C (stereo unspecified)	-2%
Cc1c(C(=O)N2C[C@@H](CN(C)C)C[C@H](CO)C2)n(C)c2c(C)cccc12	-13%
CN(C)C[C@@H]1CN(C)C[C@H]1NC(=O)c1ccccc1C(F)(F)F	4%
CS(=O)(=O)c1ccc(CN2CCC[C@H]2c2nc(-c3ccc(N4CCC(C(N)=O)CC4)nc3)no2)cc1	4%
O=C(NCCCN1CCCC1=O)C1Cn2cccc2C(=O)N1Cc1cccnc1 (stereo unspecified)	-9%
Cc1nc2c(c(-c3ccc(Cl)cc3)n1)CCN(C(=O)Cc1ccccn1)CC2	0%
Cc1c(CNC(=O)c2ccc3c(c2)[nH]c(=O)n3C2CCC(O)CC2)cnn1C (stereo unspecified)	3%
Cn1ncc(N2CCCC(C(=O)N3CCN(C(=O)c4ccco4)CC3)C2)cc1=O (stereo unspecified)	-1%
COc1cccc(NCc2nnc(C(=O)N3CCC[C@@H]3C(c3ccccc3)c3ccccc3)n2-c2cccnc2)c1	-7%
CS(=O)(=O)c1ccc(CN2C[C@H](O)C[C@H]2c2nc(-c3cccnc3)no2)cc1	-2%[70.6 µM]
O=C(c1ccccc1Cl)N1CCC2(CC1)OCC(C(=O)N1CCCC1)N2C(=O)c1ccccc1 (stereo unspecified)	-2%
Cc1ccc(-c2ccc3nnc(CNC(=O)c4ccc(F)cc4)n3n2)cc1	1%
Cc1nc(-c2ccncc2)ncc1C(C)NC(=O)CN1C(=O)CNC1=O (stereo unspecified)	-3%
O=C([C@@H]1Cc2nc[nH]c2CN1Cc1cccc(OC(F)(F)F)c1)N1CCOCC1	-11%[70.6 µM]
CCNC(=O)Nc1ccc(OCC(=O)N2CCN(c3ccccc3Cl)CC2)nc1	2%
COc1cccc(Nc2cnc3ccc(-c4ccc(F)cc4)nn23)c1	-15%[70.6 µM]
O=C(c1c(F)cccc1F)N1CCC2(CC1)NC(=O)N(Cc1ccc(F)cc1)C2=O	-10%
O=C(c1ccccc1F)N1CCC(c2nc(C3CCOCC3)no2)CC1	13%
COCc1cc(C[C@@H]2CC[C@H](O)[C@@H](CNC(=O)N3CCOCC3)O2)no1	10%[70.6 µM]
CC(C)c1ccc(NC(=O)CN2C(=O)NC3(CCCCC3)C2=O)cc1	-2%
Cc1oc(-c2cccs2)nc1CN1CCOC(Cc2ccccc2)C1 (stereo unspecified)	1%
The results go on:
SMILES	hNpr1 antagonist
Cc1ccc(OCc2nc(C3CCN(C(=O)c4ccncc4)CC3)no2)cc1	?
CC(C(=O)N(C)C)N1CCc2onc(C(c3ccccc3)c3ccccc3)c2C1 (stereo unspecified)	-1%
COc1ccc(C(=O)N[C@H](c2cnn(C)c2)C2CC(O)C2)c(F)c1F (stereo partly specified)	2%
Cn1c([C@H]2CCN(Cc3ncc[nH]3)C2)nc2ccccc21	-4%[70.6 µM]
COc1cccc(-c2cc(C(=O)NCc3c(C)cc(C)[nH]c3=O)c3c(c2)ncn3C)c1OC	-11%
O=C(NCc1ccncc1)C1CN(Cc2ccoc2)CC12CCOCC2 (stereo unspecified)	-19%
Cn1nccc1CN1CCC2(CC1)CC(=O)N(c1ccccc1)c1ccccc1O2	-14%
COc1ccc(CNC2(Cc3cc(-c4ccccc4)on3)COC2)cc1	-2%[70.6 µM]
COc1ccc(OC)c(NC(=O)CCn2ccn3nc4c(c3c2=O)CCCC4)c1	-6%
CC(=O)Nc1cc(C(=O)N2CCN(C3CCCCC3)CC2)c2ccc(C)nc2c1	4%
Cc1ccc(C2Cn3cnc(C(=O)N4CCC(C(=O)NCc5cccc(F)c5)CC4)c3CO2)cc1 (stereo unspecified)	-6%
O=C(C1CCOCC1)N1CC(c2nnc(-c3ccncc3)o2)C2(CCOCC2)C1 (stereo unspecified)	-13%
Cn1cc(CC(=O)N2CCCc3ncc(C(=O)NCc4ccoc4)cc32)c2ccccc21	-5%[70.6 µM]
CN(C)CCN(C)[C@@H]1[C@H](O)[C@H](CO)O[C@@H]1CNC(=O)c1cccs1	8%[70.6 µM]
Cc1ccc(OCC(=O)N2CCC3(CC2)N=C(c2ccc(C)cc2)NO3)cc1	-13%
OCc1cc2n(n1)CCCN(Cc1cccc(OCc3ccccn3)c1)C2	6%
CN(C)CC(=O)N1CCC2(C1)CN(C)c1ccc(C(=O)NCc3cccs3)cc12 (stereo unspecified)	5%[70.6 µM]
Fc1ccc(-c2cn[nH]c2C2CCCNC2)cc1 (stereo unspecified)	2%
O=C(c1cccc(F)c1)N1CCCC(c2nc(C3CCOCC3)no2)C1 (stereo unspecified)	-2%
O=C(Cc1ccccn1)N1CCC(c2nn(-c3ccccc3)c(=O)[nH]2)CC1	0%
O=C1NCCCCCCN(Cc2ccncc2)[C@@H]2CN(S(=O)(=O)c3cccc(F)c3)CC[C@H]12	-1%
Oc1ccccc1CN1CCNc2cnc(Oc3ccccc3)cc2C1	?
CN1C(=O)CS(=O)(=O)C12CCN(C(=O)c1ccc(F)cc1)CC2	4%
Cc1cnc(C(=O)N2CCC(Cc3ccc(C(N)=O)cc3)CC2)cn1	-1%
CN1CCCC1c1nc(C2CN(C(=O)c3ccco3)C2)no1 (stereo unspecified)	-3%
C[C@@H]1CN(C(=O)c2cccc(OCC(N)=O)c2)C[C@]1(C)O	1%
Cc1ccc(C(=O)N[C@H]2CO[C@H]3[C@@H]2OC[C@@H]3Nc2nccc(C(C)(C)C)n2)cc1	?
Cc1noc2c(-c3cccnc3)cc(-c3cccs3)nc12	-4%[70.6 µM]
CCOc1ccc(C(=O)N2CCC[C@H]2c2nc(-c3ccc(OC)c(OC)c3)no2)cc1	-2%
COCCNC(=O)[C@@H]1C[C@H](Oc2cccnc2)CN1C(=O)CCc1c[nH]c2ccccc12	0%
CCOC(=O)C1CCN(C(=O)c2cccc3c2CCN3C(=O)Nc2ccccc2)CC1	-23%
COc1ccc(NC(=O)Cn2cccc2-c2nc(-c3ccc(F)cc3)no2)cc1Cl	-2%
O=C(c1ccc2ccccc2n1)N1CC2CC(C1)[C@H]1CCCC(=O)N1C2 (stereo partly specified)	-8%
COC(=O)c1ccc2c(c1)nc1n2[C@@H](CNCc2cccnc2)COC1	-2%[70.6 µM]
Cc1noc(C)c1S(=O)(=O)N1CCC(c2noc(-c3ccccc3)n2)C1 (stereo unspecified)	-1%
CCn1c(Cn2ccnc2)nnc1C1CCN(Cc2ccc(F)c(F)c2)CC1	1%
Cc1noc(C2CCCCCN2C(=O)Nc2ccccc2)n1 (stereo unspecified)	0%
CN(Cc1cccc(C(F)(F)F)c1)Cc1ccccc1C(F)(F)F	0%[70.6 µM]
C[S+](=O)([O-])N1CC2(Cc3ccccc31)CN(C(=O)c1cccc(Cl)c1)C2	0%
c1ccc(C2(c3ccccc3)CCCN(CCCn3cnnn3)C2)cc1	-8%
CCNC(=O)N1C[C@@H](F)[C@@H](OCc2nc3ccc(F)cc3[nH]2)C1	3%[70.6 µM]
CC(C)N1C[C@@H]2C[C@H]1C(=O)N(Cc1cccnc1)c1ccccc1O2	0%[70.6 µM]
COc1ccc(OC2CCN(C(C)=O)CC2)c(C(=O)N2CCCCC2CCO)c1 (stereo unspecified)	1%
Cc1ccc(C2Cn3nnc(C(=O)N4CCC(C(=O)Nc5ccc(F)c(C)c5)CC4)c3CO2)cc1 (stereo unspecified)	-12%
COCC1CN(C2CCC2)CC12CCN(C(=O)c1ccc(OC)nc1)CC2 (stereo unspecified)	-17%
CCN(CC)CC[C@H]1CN(C(=O)Cc2cccs2)CC[C@H]1CC(=O)O	5%[70.6 µM]
COc1ccccc1-n1cc(C(=O)N[C@H](c2cnn(C)c2)C2CC(O)C2)cn1 (stereo partly specified)	3%
COCCNc1cc(-c2ccc3ccccc3n2)c2cc[nH]c2n1	-19%
COC(=O)N1CC2(Cc3ccccc3N(C(C)=O)C2)C1	-4%[70.6 µM]
FC(F)(F)Oc1ccc(CNC2(Cc3cc(CN4CCOCC4)on3)COC2)cc1	-1%[70.6 µM]
Additional results.
SMILES	hNpr1 antagonist
CCc1cccc(NC(=O)Cn2c(-c3cnccn3)nc(C)c(CCO)c2=O)c1	-13%
CN1CCN(c2ccc3ncc(Nc4ccc(Cl)c(C(F)(F)F)c4)n3n2)CC1	?
COc1ccc(-c2nccn3cc(C(=O)NCc4cccnc4)nc23)cc1	11µM*
CNC(=O)N1CCCC(c2nc(CCOCC3CCCC3)no2)C1 (stereo unspecified)	?
CC1(COCC2CC2)COc2ccc(C(=O)Nc3cccnc3)cc2N1 (stereo unspecified)	?
CCCNC(=O)[C@@H]1Cc2cn(Cc3cccnc3)c3cccc(c23)[C@H](CC(C)C)N1	-2%[70.6 µM]
CC1=NS(=O)(=O)N(CCc2ccccc2)C=C1C(=O)O	0%
CC1(C)C(=O)N(CC2CCOCC2)[C@H]2CN(Cc3ccccc3)C[C@@H]2[S+]1(=O)[O-]	0%[70.6 µM]
Cc1ccc(C(=O)N2CCCC3(C2)NC(=O)N(Cc2ccc(Cl)cc2)C3=O)cc1 (stereo unspecified)	2%
CCCN1CCN(C(=O)CN2CC3CC(C2)[C@H]2CCCC(=O)N2C3)CC1 (stereo partly specified)	-8%

Some of the compounds tested, so the mix of outcomes need not match the whole.
